# gsp ag = agonists of gsp mutant (McCune-Albright syndrome) | gsp mutant cells, cAMP HTRF, 30 min; control for the full effect not named in the record | Potency, µM (doses to about 76.9 µM), for the others: at the highest dose activation (cAMP increase), hits mostly activators | 340,000 tested, 0.13% active | AID 624287; active = well fitted activation curve with a large enough effect; inconclusive = small, poorly fitted or top-dose-only effect, or another doubt; inactive = no such curve, though single readings can be large or run the other way; cell line not stated here;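 also: phosphodiesterase inhibitor Ro 20-1724 added with compounds to block cAMP breakdown; potency is read from the fitted curve at half-maximal effect; nearly all actives have a fitted effect of over 60% in size; about a fifth of the inactives were tested at one dose only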
#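 Cells in DMEM/10% FBS with G418 were pretreated with compounds in DMSO plus […] (300 uM stock) for 30 min at 37C. cAMP was measured by HTRF (cAMP-d2 plus anti-cAMP antibody-K) after 30 min at room temperature.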
# ClpP mod = qHTS Assay for Activators of ClpP | purified B. subtilis ClpP, FRET peptide cleavage, 20 min | Potency, µM (highest dose often 57.5 µM), inactives show at the top dose activity change, negative = active | 340,000 tested, 1.9% active; active = well fitted falling curve with a large enough effect; inconclusive = small, poorly fitted or top-dose-only effect; inactive = no such curve, though single readings can be large or run the other way; also: potency is read from the fitted curve at half-maximal effect; the source files actives as falling curves though it sought activators and does not explain the sign; nearly all actives have a fitted effect of over 65% in size; many hits overshoot -100%
# Target sequence (P80244 whole entry, looked up): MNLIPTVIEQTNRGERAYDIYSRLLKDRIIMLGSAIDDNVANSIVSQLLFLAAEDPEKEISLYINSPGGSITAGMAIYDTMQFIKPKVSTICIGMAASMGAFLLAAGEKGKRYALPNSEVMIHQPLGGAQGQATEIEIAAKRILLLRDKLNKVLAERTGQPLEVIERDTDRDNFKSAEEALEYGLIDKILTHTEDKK
#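 ClpP 10 microg/mL final, pH 8 Tris/KCl buffer with BSA, glycerol, Tween-20; compound pinned in; FRET-FV substrate; RT 20 min; Ex320/Em430; ΔFRET vs ADEP 5.8 microM, DMSO, no enzyme.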
# TRPML1 inh = human mucolipin-1 channel inhibition. 390,000 tested, 0.02% active. AID 624415. TRPML1-inducible cells, Ca2+ dye fluorescence, FDSS; hits give low values; inhibition of EC80 agonist-evoked calcium signal. activity change, negative = inhibition, % (no concentration beside the values). Q9GZU1; in the data active means activity change below about -50%; inconclusive means about -30% to -50%; inactive means above about -30%;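 also: stimulus is agonist 54-4 at its EC80 concentration; % is scaled to controls: 0 for no effect and ±100 for the full control effect; compound concentration not given in the record; the text of the record puts the active cut at -80%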
#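 Tet-induced TRPML1-DL cells loaded with Ca8 no-wash calcium dye were read kinetically on FDSS. Compound addition was followed by EC80 agonist 54-4 (4 uM final); inhibition was read over 110 s.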
# TRPV1 potentiator = human TRPV1 potentiation | TRPV1-expressing cells, Fluo-8 calcium influx, capsaicin EC20 potentiation; host cell line not named in the record; control for the full effect not named in the record | potentiation, % at 8.33 µM | 320,000 tested, 0.02% active | AID 540277; active means potentiation above 80%; inconclusive means 30% to 80%; inactive means below 30%; also: 0% is about no effect
# Target sequence (Q8NER1 whole entry, looked up): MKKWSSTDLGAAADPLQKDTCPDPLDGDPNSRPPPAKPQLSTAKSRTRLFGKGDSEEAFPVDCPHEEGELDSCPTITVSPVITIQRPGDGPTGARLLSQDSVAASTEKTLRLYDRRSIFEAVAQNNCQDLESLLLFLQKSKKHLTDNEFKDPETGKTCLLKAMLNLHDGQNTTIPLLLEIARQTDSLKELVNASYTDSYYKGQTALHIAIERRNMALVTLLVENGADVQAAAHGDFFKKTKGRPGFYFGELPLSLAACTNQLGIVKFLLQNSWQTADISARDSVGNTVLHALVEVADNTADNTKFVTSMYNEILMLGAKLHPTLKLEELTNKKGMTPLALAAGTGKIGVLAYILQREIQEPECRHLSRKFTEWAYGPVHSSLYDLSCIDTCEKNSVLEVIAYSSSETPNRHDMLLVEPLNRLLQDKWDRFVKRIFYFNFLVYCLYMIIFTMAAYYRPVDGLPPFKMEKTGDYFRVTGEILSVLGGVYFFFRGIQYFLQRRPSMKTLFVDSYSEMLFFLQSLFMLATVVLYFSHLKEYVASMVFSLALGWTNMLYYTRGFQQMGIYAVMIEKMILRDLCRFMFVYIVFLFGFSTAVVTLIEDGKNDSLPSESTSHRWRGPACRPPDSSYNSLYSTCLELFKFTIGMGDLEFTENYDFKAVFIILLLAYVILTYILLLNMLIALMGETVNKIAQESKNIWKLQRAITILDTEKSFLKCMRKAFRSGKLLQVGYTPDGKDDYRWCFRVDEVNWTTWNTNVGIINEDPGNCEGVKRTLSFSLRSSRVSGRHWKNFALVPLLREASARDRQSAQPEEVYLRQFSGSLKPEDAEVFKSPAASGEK
#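 Cells expressing TRPV1 were dye-loaded with Fluo-8 and read kinetically: 10 s baseline, 3 min after compound (agonist portion), then 2 min after EC20 capsaicin (allosteric enhancer portion). Calcium-bound dye fluorescence at 480/520 nm.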
# gsp antag = antagonists of gsp mutant (McCune-Albright syndrome). gsp-mutant cells, cAMP HTRF, 30 min; control for the full effect not named in the record. Potency, µM (titrated, usually from 76.9 µM), for the others: at the highest dose activity change, negative = inhibition, hits mostly inhibitors. 340,000 tested, 0.4% active; active = falling curve of any shape with a large fitted effect; inconclusive = falling curve, mostly with a smaller effect; inactive = flat or rising curve; cell line not stated here;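 also: intracellular cAMP measured with PDE inhibitor Ro 20-1724 present during compound exposure; potency is read from the fitted curve at half-maximal effect; % is scaled to controls: 0 for no effect and ±100 for the full control effect; nearly all actives have a fitted effect of over 65% in size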
#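 Cells, 2000/well, grown 16–24 h in DMEM 10% FBS with 0.5 mg/ml G418, then compounds plus […] (300 uM addition stock), 30 min at 37C. cAMP read by HTRF (cAMP-d2 and anti-cAMP antibody-K in lysis buffer) after 30 min RT.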
# Sfp inh = Sfp phosphopantetheinyl transferase inhibition | Biochemical Sfp PPTase activity, qHTS | Potency, µM, inactives show max response, negative = inhibition, most hits filed as inhibitors | 310,000 tested, 3.5% active | AID 1490; active = well fitted inhibition curve with a large enough effect; inconclusive = small, poorly fitted or top-dose-only effect, or another doubt; inactive = no such curve, though single readings can be large or run the other way;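 also: the enzyme is Sfp with the accession as filed and its product quenches rhodamine fluorescence; potency is read from the fitted curve at half-maximal effect; 0% = enzyme reaction without inhibitor and -100% = no enzyme wells; top concentration of the series not given in the record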
#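 With Hepes-Na pH 7.6 buffer containing 10 mM MgCl2, Sfp (15 nM) modified BHQ-2-YbbR (12.5 uM) using rhodamine-CoA (5 uM). Two reads 30 minutes apart at 525/598 nm yielded each well's rate.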
# Menin-MLL FL inh = displaces fluorescein MLL peptide from human menin. Fluorescence polarization, fluorescein-MLL peptide displacement from menin. FP activity change, % at 61.4 µM. 290,000 tested, under 10 active. AID 1766; inconclusive = falling polarisation curve, or a change in total fluorescence; inactive = total fluorescence flat and polarisation flat or rising; no compound was filed as active; the % refers to the polarisation; negative = inhibition;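 also: % of control where 0% means no effect; inhibitors lower the polarisation; unlabelled MLL peptide was the positive control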
# * hit, by the source's call; ? = inconclusive; · = not tested or not shown; [ ] = dose if it differs, or a comment.
# Preview:
# Screens in order – gsp ag	ClpP mod	TRPML1 inh	TRPV1 potentiator	gsp antag	Sfp inh	Menin-MLL FL inh
Cc1csc(NC(=O)CCCNC(=O)c2ccc(Cl)cc2)n1
 : 1%	-0.4%	5	5	-7%	·	·
COC(=O)c1ccc(NC(=O)CN2CCN(c3ccccn3)CC2)cc1
 : 0%	-3.3%	16	-5	2%	2%	-3.5

# This part in full, repeating the preview:
# Screens in order – gsp ag	ClpP mod	TRPML1 inh	TRPV1 potentiator	gsp antag	Sfp inh	Menin-MLL FL inh
Cc1csc(NC(=O)CCCNC(=O)c2ccc(Cl)cc2)n1
 : 1%	-0.4%	5	5	-7%	·	·
COC(=O)c1ccc(NC(=O)CN2CCN(c3ccccn3)CC2)cc1
 : 0%	-3.3%	16	-5	2%	2%	-3.5
CC(NC(=O)COC(=O)/C=C/c1ccco1)c1ccccc1 (stereo not drawn)
 : -2%	·	23	-4	2%	-28%	-0.5
Cc1cc(-n2cnnn2)cc(C)c1S(=O)(=O)NCCOc1ccccc1
 : -21%	0.0%	4	-7	-3%	23%	·
O=[N+]([O-])/C(C(Cl)=C(Cl)Cl)=C(\Nc1ccc(F)cc1)n1cncn1
 : ·	·	·	-10	·	-19%	4.7
CSCc1ccc(C(=O)NC2CC(C)(C)Cc3c2cnn3-c2ccc(F)cc2)o1 (stereo not drawn)
 : 29%	1.1%	0	-12	-27%	-7%	-1.8
O=Cc1ccc(-c2cc(Cl)ccc2Cl)[nH]1
 : -2%[15.4 µM]	·	29	-46	7%	6%	1.3
CSc1ccc(CN2CCC(N3CCC(C(=O)NC4CC4)CC3)CC2)cc1
 : -22%	-3.1%	-18	·	·	·	·
COc1ccc(CCC(=O)N2CCN(C(=O)c3ccccc3)CC2)cc1
 : -7%	-1.8%	11	0	2%	5%	7.7
Cc1ccc(S(=O)(=O)NCCC2=CCCCC2)cc1C(N)=O
 : -2%	1.2%	4	5	-20%	7%	·
O=C1CCC/C(=N/NC(=O)c2sc3ccccc3c2Cl)C1
 : ?	-2.2%	-7	15	-11%	-15%	?
CCN1CCN(c2ccc(S(=O)(=O)N3CCCCC3)cc2NC(=O)c2ccc(OC(F)F)cc2)CC1
 : -8%	-3.1%	3	1	-4%	·	·
Cc1onc(-c2ccccc2Cl)c1C(=O)Nc1cccc(S(=O)(=O)N2CCOCC2)c1
 : 4%	0.9%	-16	·	-8%	·	·
Cc1csc(NC(=O)c2ccc(Cl)cc2[N+](=O)[O-])n1
 : 1%[15.4 µM]	·	-9	7	0%	6%	4.5
O=C(NN1C(=O)C2C3C=CC(C3)C2C1=O)c1cccc(Cl)c1 (stereo not drawn)
 : -10%	?	33	2	5%	-6%	5.2
CCOc1ccc(S(=O)(=O)/N=C(/Nc2ccc(S(N)(=O)=O)cc2)c2ccccc2)cc1
 : -7%	-0.6%	-4	·	-3%	·	·
COc1ccc2[nH]c3c(c2c1)CCN1C(=O)C(CC(=O)NCCCn2ccnc2)C[C@H](C(=O)N2CCCCC2)[C@@]31CCc1ccccc1 (stereo partly drawn)
 : ·	-2.9%	17	·	-6%	·	·
CCC1CCc2c(sc3ncnc(N4CCOCC4)c23)C1 (stereo not drawn)
 : -19%	-4.5%	3	9	6%	-28%	1.2
C/C(=N/O)c1cc(C(C)(C)C)c(O)c(C(C)(C)C)c1
 : -31%	-0.4%	20	-6	-5%	24%	1.4
CCOc1ccc(C(=O)OC2CCCN(C)C2)cc1 (stereo not drawn)
 : 5%	-0.8%	17	6	7%	-7%	-2.8
COC(=O)c1ccc(NC(=O)CSc2nnc(C)n2CC2CCCO2)cc1 (stereo not drawn)
 : -6%[15.4 µM]	-4.8%	7	2	13%	15%	·
CN(C)S(=O)(=O)CC12CCC(CC1=O)C2(C)C (stereo not drawn)
 : ?	-1.0%	6	7	-8%	3%	-0.4
Cn1c(SCc2nc3ccccc3c(=O)[nH]2)nc2ccccc21
 : -1%[15.4 µM]	·	6	25	·	4%	0.4
Cc1cc(C(=O)Nc2cccnc2Cl)on1
 : -4%	0.9%	-16	4	7%	20%	5.5
CC(C)C(NC(=O)C1CCC(C(C)(C)C)CC1)C(=O)NCCCN1CCCCC1 (stereo not drawn)
 : -9%	·	-3	-15	6%	9%	-0.1
COC(=O)c1ccccc1NC(=O)CN1CCC(C)CC1
 : -6%[15.4 µM]	·	1	-11	11%	18%	5.2
CCc1nn(C(CC)C(=O)NCc2cccc(OC)c2)c(=O)c2cc3occc3n12 (stereo not drawn)
 : -25%	-5.7%	-15	13	-9%	27%	-0.8
C[C@@H]1C[C@H](O)c2cc(Cl)ccc2N1
 : 20%	-16%	-2	1	-2%	9%	-0.2
Cn1c(=O)c2c(n3cnnc13)-c1ccccc1CC21CCCC1
 : -7%	-12%	2	-5	19%	15%	1.9
C=C(C)C1CC=C(C)/C(=N\NC(=S)Nc2ccc(C)cc2)C1 (stereo not drawn)
 : -18%	1.4%	18	-4	?	8%	4.2

# Remaining list, next part:
# Screens in order – gsp ag	ClpP mod	TRPML1 inh	TRPV1 potentiator	gsp antag	Sfp inh	Menin-MLL FL inh
CCOc1ccc(OCC)c(NC(=O)c2[nH]c(C)c(C(C)=O)c2C)c1
 : ?	-1.4%	-11	-5	11%	4%	1.5
COc1ccccc1CN1CCNC(=O)C1CC(=O)NCCCN1CCCC1=O (stereo not drawn)
 : ?	-8.9%	-21	-4	16%	-6%	-8.5
O=C(CSc1ccccc1)NCCc1ccc(F)cc1
 : -35%[inhibitor]	1.8%	23	-22	-2%	16%	-1.9
COCCCNC(=O)c1c(N)n(-c2cccc(S(N)(=O)=O)c2)c2nc3ccccc3nc12
 : -1%	8.9µM*	0	-2	?	3%	4.5
CCc1ncc(C(O)c2ccc(Cl)cc2)n1Cc1ccccc1 (stereo not drawn)
 : -31%[inhibitor]	?	0	·	·	·	·
O=C(Cn1cc2c(n1)CCCC2)Nc1cc(-c2cccc(Cl)c2)no1
 : -21%	-3.5%	11	5	?	14%	5.7
Cc1cc(=O)n(CC(C)C)c(O)c1C#N
 : -11%	?	7	-11	2%[15.4 µM]	-16%	?
CCSc1nc2c(c(=O)[nH]1)C(c1ccncc1)C(C(=O)OC(C)C)=C(C)N2 (stereo not drawn)
 : -8%	-5.5%	3	-26	-18%	20%	4.9
COC(=O)c1ccc(CN2C(=O)C(C)N(C(=O)c3c(F)cccc3F)c3ccccc32)cc1 (stereo not drawn)
 : -34%[inhibitor]	-0.3%	-6	-2	?	0%	3.7
Cc1cc(C(=O)NCc2cccnc2)cs1
 : -29%	1.4%	-6	·	10%	5%	1.8
COc1ccc(Br)cc1C1N2CC3(C)CN1CC(C)(C2)C3=O (stereo not drawn)
 : ?	-0.4%	79	-17	-12%	14%	-0.2
Cc1nnc(-c2cnn(C)c2N)n1Cc1ccccc1
 : -2%	-0.1%	5	3	-1%	9%	2.3
Cc1cc(C)cc(NCc2cc(=O)oc3cc(C)c(O)cc23)c1
 : 0%	0.6%	-11	1	-8%	10%	-3.6
CC1=NN(C(=O)c2cc(C)nn2C)C(O)(C(F)(F)F)C1 (stereo not drawn)
 : 2%	-2.7%	6	2	12%	8%	2.1
O=[N+]([O-])c1ccc(N/N=C/c2ccccc2O)cc1
 : -2%	-3.8%	-10	-3	-3%	-9%	?
O=[N+]([O-])c1ccc(Nc2nc(N/N=C/c3cccc(F)c3)nc(N3CCCC3)n2)cc1
 : 7%[15.4 µM]	-0.6%	-8	0	?	8%	-1.0
COCCCNC(=S)N1CCCN(c2nc3cc(C)c(C)cc3cc2C#N)CC1
 : -35%[inhibitor]	?	-9	-10	-25%	28µM*	-5.3
Cn1c2ccccc2c2cnn(CC(=O)Nc3ccccc3Br)c(=O)c21
 : -52%[inhibitor]	-11%	1	7	-1%	-11%	0.3
N#CC1=C(N)OC2=C(C(=O)CCC2)C1c1ccncc1 (stereo not drawn)
 : -3%	7.7%	9	-23	-3%	14%	2.4
C[C@@H]1CN([C@@H](C)CO)C(=O)Cc2cc(NS(=O)(=O)c3ccccc3)ccc2O[C@H]1CN(C)S(C)(=O)=O
 : ·	-3.4%	19	·	3%	·	·
COc1cc(OC)c(-c2nn3c(-c4ccco4)nnc3s2)cc1OC
 : -206%[inhibitor]	28µM*	6	4	-7%	3%	6.2
CCc1nnc(NC(=O)C2Cc3ccccc3C(=O)O2)s1 (stereo not drawn)
 : 21%	-0.6%	13	0	-2%	-14%	6.1
CCCn1c(SCC(=O)Nc2cccc(NC(C)=O)c2)nnc1C(C)C
 : -25%	-0.5%	5	0	-9%	6%	-4.0
NNC(=O)c1cccn(Cc2cccc(C(F)(F)F)c2)c1=O
 : -19%	-19%	-16	0	3%	0%	-0.4
CCOC(=O)/C(C(C)=O)=C1\OC(=O)c2ccccc21
 : -48%[inhibitor]	-1.4%	-15	0	2%	8%	2.6
COc1ccccc1N(CC(=O)Nc1cccnc1)S(C)(=O)=O
 : 11%	2.1%	-4	?	-5%	17%	-3.7
O=C(COc1ncnc2ccccc12)N1CCN(c2ccccc2)CC1
 : 7%[15.4 µM]	·	-1	-23	·	8%	-1.7
COc1ccc(OCCCC(=O)OCC(=O)N2CCN(S(=O)(=O)c3ccc(C)cc3C)CC2)cc1
 : -26%	-2.9%	5	·	-3%	·	·

# Arranged by molar mass (smallest number first): 4 of the compounds above
# Screens in order – gsp ag	ClpP mod	TRPML1 inh	TRPV1 potentiator	gsp antag	Sfp inh	Menin-MLL FL inh
O=C(NN1C(=O)C2C3C=CC(C3)C2C1=O)c1cccc(Cl)c1 (stereo not drawn)
 : -10%	?	33	2	5%	-6%	5.2
Cc1ccc(S(=O)(=O)NCCC2=CCCCC2)cc1C(N)=O
 : -2%	1.2%	4	5	-20%	7%	·
COc1ccc(CCC(=O)N2CCN(C(=O)c3ccccc3)CC2)cc1
 : -7%	-1.8%	11	0	2%	5%	7.7
O=C(Cn1cc2c(n1)CCCC2)Nc1cc(-c2cccc(Cl)c2)no1
 : -21%	-3.5%	11	5	?	14%	5.7

# Bioassay records as filed in PubChem.
